# Yeast UUG start = yeast start codon fidelity modulation; S. cerevisiae UUG-firefly luciferase reporter, luminescence/redox ratio; activity score, % at 18.7 µM; 0.13% of 350,000 active;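 active means replicate mean at a twofold rise or more, about +100% in these data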;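 further: firefly luciferase made from a UUG start codon reports start codon fidelity; reporter light over untreated wells divided by growth signal over untreated wells; some hits fall short of that in this replicate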
# HIV Env fusion = blocks HIV Env-driven cell-cell fusion; inhibition, % at 12.3 µM; HeLa-JRFL Env/CEM21 cell fusion, luciferase; 1.1% of 360,000 active;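 active means mean replicate inhibition score of at least 50 and every replicate individually at or above 50; inconclusive means only one of the two criteria met; inactive means mean below 50 and not all replicates reaching 50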;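 further: 0% = plate neutral controls and 100% = maraviroc near 300 nM; one replicate is shown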
# Numbers without * were called inactive; ? = inconclusive; & = joins results of further samples; [ ] = remark or other dose. Only part of the results is shown, so the mix of outcomes need not match the whole.
SMILES,Yeast UUG start,HIV Env fusion
Cc1noc(C)c1S(=O)(=O)N(C)C[C@@H]1Oc2ccc(NC(=O)NC(C)C)cc2CC(=O)N([C@@H](C)CO)C[C@@H]1C,4,26[16.7 µM]
C[C@H](CO)N1C[C@H](C)[C@H](CN(C)C(=O)Nc2cccc3ccccc23)Oc2ccc(NS(=O)(=O)c3ccc(F)cc3)cc2C1=O,8,-17[16.7 µM]
COc1cccc(S(=O)(=O)Nc2ccc3c(c2)[C@@H]2C[C@H](CC(=O)NCC(F)(F)F)O[C@H](CO)[C@@H]2O3)c1,6,-45[16.7 µM]
COc1ccc(C#Cc2cnc3c(c2)C(=O)N([C@H](C)CO)C[C@H](C)[C@H](CN(C)CC2CCCC2)O3)cc1,8,-7[16.7 µM]
CCCNC(=O)N(C)C[C@@H]1Oc2cc(-c3ccc(C)cc3)ccc2S(=O)(=O)N([C@@H](C)CO)C[C@@H]1C,14,-36[16.7 µM]
C[C@H]1CN([C@@H](C)CO)C(=O)c2cc(NC(=O)Nc3ccc4c(c3)OCO4)ccc2O[C@@H]1CN(C)CC1CCCCC1,25,6[16.7 µM]
Cc1noc(C)c1NC(=O)N(C)C[C@@H]1Oc2ccc(NC(=O)NC(C)C)cc2CC(=O)N([C@@H](C)CO)C[C@@H]1C,28,-6[16.7 µM]
C[C@H]1CN([C@@H](C)CO)C(=O)c2cccc(NC(=O)Nc3ccc(C(F)(F)F)cc3)c2O[C@@H]1CN(C)Cc1ccc(C(F)(F)F)cc1,-9,?
COc1ccc(S(=O)(=O)N(C)C[C@@H]2OCCCC[C@H](C)Oc3ccc(NC(=O)Nc4ccc(C(F)(F)F)cc4)cc3C(=O)N([C@H](C)CO)C[C@@H]2C)cc1,-26,11[16.7 µM]
C[C@@H]1CN([C@@H](C)CO)C(=O)c2cccc(NC(=O)c3ccncc3)c2O[C@@H]1CN(C)S(=O)(=O)c1ccccc1,9,25[16.7 µM]

# Going on with the list.
SMILES,Yeast UUG start,HIV Env fusion
CNC[C@@H]1Oc2cc(C#CC(C)C)ccc2S(=O)(=O)N([C@H](C)CO)C[C@H]1C,-3,0[16.7 µM]
CNC[C@H]1Oc2cc(C#C[C@@H](C)O)ccc2S(=O)(=O)N([C@@H](C)CO)C[C@@H]1C,-6,4[16.7 µM]
C[C@H](CO)N1C[C@H](C)[C@H](CN(C)S(=O)(=O)c2cccc(F)c2)Oc2ncc(-c3ccccc3)cc2C1=O,22,-1[16.7 µM]
C[C@@H]1CN([C@H](C)CO)C(=O)c2cc(C#CCN(C)C)cnc2O[C@@H]1CN(C)C(=O)Cc1cccnc1,-7,9[16.7 µM]
CCCNC(=O)C[C@@H]1C[C@H]2c3cc(NC(=O)CN(C)C)ccc3O[C@H]2[C@@H](CO)O1,-13,42[16.7 µM]
C[C@H](CO)N1C[C@H](C)[C@H](CN(C)C(=O)Nc2ccccc2)Oc2ccc(NC(=O)CCCCCC(=O)Nc3ccccc3N)cc2CC1=O,5,12[16.7 µM]
COCC#Cc1ccc2c(c1)O[C@H](CN(C)C(=O)CC1CC1)[C@@H](C)CN([C@H](C)CO)S2(=O)=O,12,-20[16.7 µM]
COc1ccc(S(=O)(=O)N(C)C[C@H]2Oc3cc(-c4ccccc4OC)ccc3S(=O)(=O)N([C@H](C)CO)C[C@@H]2C)cc1,-18,41[16.7 µM]
C[C@H]1CN([C@@H](C)CO)C(=O)c2cc(C#Cc3cccc(F)c3)cnc2O[C@H]1CN(C)C(=O)C1CCC1,3,-15[16.7 µM]
C[C@H](CO)N1C[C@H](C)[C@@H](CN(C)Cc2ccc(Oc3ccccc3)cc2)Oc2ccc(N(C)C)cc2C1=O,-9,-7[16.7 µM]

# Next section
SMILES,Yeast UUG start,HIV Env fusion
C[C@H]1CN([C@@H](C)CO)S(=O)(=O)c2ccc(C#CC3(O)CCCC3)cc2O[C@H]1CN(C)C(=O)Nc1cccc(F)c1,9,10[16.7 µM]
Cc1noc(C)c1S(=O)(=O)Nc1ccc2c(c1)C(=O)N([C@@H](C)CO)C[C@H](C)[C@H](CN(C)S(=O)(=O)c1cccs1)OCCCC[C@H](C)O2,-4,23[16.7 µM]
Cc1noc(C)c1S(=O)(=O)Nc1ccc2c(c1)C(=O)N([C@H](C)CO)C[C@H](C)[C@H](CN(C)C(=O)Nc1ccc(C(F)(F)F)cc1)OCCCC[C@H](C)O2,-12,18[16.7 µM]
C[C@@H]1CCCCO[C@H](CN(C)Cc2ccc3c(c2)OCO3)[C@H](C)CN([C@H](C)CO)C(=O)c2cc(NS(=O)(=O)c3cccs3)ccc2O1,35&23,-4&1[16.7 µM]
C/C=C/c1ccc2c(c1)O[C@H](CN(C)S(C)(=O)=O)[C@H](C)CN([C@H](C)CO)S2(=O)=O,20,-8[16.7 µM]
COC(=O)N(C)C[C@H]1OCc2cn(nn2)CCCC(=O)N([C@H](C)CO)C[C@H]1C,-13,-25[16.7 µM]
C[C@@H]1CN([C@@H](C)CO)C(=O)c2cc(/C=C/c3ccccc3)cnc2O[C@H]1CN(C)C(=O)c1cnccn1,3,13[16.7 µM]
Cc1ccc(S(=O)(=O)N(C)C[C@H]2OCCCC[C@@H](C)Oc3ccc(NS(C)(=O)=O)cc3C(=O)N([C@@H](C)CO)C[C@H]2C)cc1,9,-37[16.7 µM]
Cc1noc(C)c1S(=O)(=O)N(C)C[C@@H]1Oc2ccc(NC(=O)c3ccncc3)cc2CC(=O)N([C@@H](C)CO)C[C@@H]1C,-2,16[16.7 µM]
C/C=C/c1ccc2c(c1)O[C@H](CN(C)C(=O)C1CC1)[C@@H](C)CN([C@@H](C)CO)S2(=O)=O,-6,4[16.7 µM]

# Next compounds follow:
SMILES,Yeast UUG start,HIV Env fusion
NCC[C@@H]1CC[C@@H](NS(=O)(=O)Cc2ccccc2)[C@@H](CO)O1,-10,5[16.7 µM]
O=C(NCC[C@H]1CC[C@@H](NC(=O)C2CC2)[C@@H](CO)O1)c1ccc(F)cc1,-23,-7[16.7 µM]
COCC#Cc1ccc2c(c1)O[C@H](CN(C)Cc1cncnc1)[C@H](C)CN([C@@H](C)CO)S2(=O)=O,3,-3[16.7 µM]
C[C@H]1CN([C@@H](C)CO)C(=O)Cc2cc(NC(=O)CCN3CCOCC3)ccc2O[C@@H]1CN(C)C(=O)Nc1ccc(F)cc1,-7,2[16.7 µM]
CCCC#Cc1ccc2c(c1)O[C@@H](CN(C)C(=O)c1cnccn1)[C@@H](C)CN([C@H](C)CO)S2(=O)=O,20,-8[16.7 µM]
C[C@@H]1CCCCO[C@@H](CN(C)C(=O)Nc2ccccc2)[C@H](C)CN([C@H](C)CO)C(=O)c2cc(NS(C)(=O)=O)ccc2O1,11,0[16.7 µM]
COc1cccc(CNC(=O)C[C@H]2C=C[C@H](NS(=O)(=O)c3ccccc3OC)[C@@H](CO)O2)c1,-4,1[16.7 µM]
Cc1ccc(S(=O)(=O)Nc2cccc3c2O[C@@H](CN(C)Cc2ccc(Cl)c(Cl)c2)[C@H](C)CN([C@@H](C)CO)C3=O)cc1,11,10[16.7 µM]
C[C@@H]1CN([C@@H](C)CO)C(=O)Cc2cc(NS(=O)(=O)c3ccc(F)cc3)ccc2O[C@@H]1CN(C)Cc1ccc(C(=O)Nc2ccccc2N)cc1,0,-12[16.7 µM]
CC(C)C#Cc1ccc2c(c1)O[C@H](CN(C)C(=O)Cc1ccccn1)[C@@H](C)CN([C@@H](C)CO)S2(=O)=O,8,7[16.7 µM]

# Next section
SMILES,Yeast UUG start,HIV Env fusion
COCc1cn(CC[C@@H]2CC[C@H](NC(=O)c3ccccc3)[C@@H](CO)O2)nn1,-2,17[16.7 µM]
Cc1noc(C)c1NC(=O)Nc1cccc2c1O[C@H](CN(C)C(=O)Nc1ccccc1)[C@H](C)CN([C@@H](C)CO)C2=O,-6,-37[16.7 µM]
Cc1noc(C)c1NC(=O)Nc1ccc2c(c1)C(=O)N([C@@H](C)CO)C[C@H](C)[C@H](CN(C)Cc1ccccc1)OCCCC[C@@H](C)O2,4,8[16.7 µM]
COc1cccc(-c2ccc3c(c2)O[C@@H](CN(C)C(=O)C2CCC2)[C@H](C)CN([C@H](C)CO)S3(=O)=O)c1,-9,3[16.7 µM]
C[C@H]1CN([C@@H](C)CO)C(=O)c2cccc(NC(=O)NC3CCCCC3)c2O[C@H]1CN(C)Cc1ccncc1,-14,-21[16.7 µM]
COCC(=O)Nc1ccc2c(c1)C(=O)N(C)[C@H]1CC[C@H](CC(=O)NCCc3ccccc3)O[C@H]1CO2,-5,8[16.7 µM]
Cc1noc(C)c1NC(=O)N(C)C[C@H]1Oc2ccc(NS(=O)(=O)c3ccc(F)cc3)cc2CC(=O)N([C@@H](C)CO)C[C@@H]1C,7,-38[16.7 µM]
C[C@@H]1CN([C@@H](C)CO)C(=O)c2cc(C#CCN(C)C)cnc2O[C@H]1CN(C)Cc1ccccn1,-25,-11[16.7 µM]
C[C@@H]1CN([C@@H](C)CO)C(=O)c2cc(NS(=O)(=O)c3cccs3)ccc2O[C@@H](C)CCCCO[C@@H]1CN(C)S(=O)(=O)c1ccccc1,-16,-21[16.7 µM]
C[C@H](CO)N1C[C@H](C)[C@@H](CN(C)Cc2ccc3c(c2)OCO3)OCCCC[C@H](C)Oc2ccc(NC(=O)Nc3ccccc3)cc2C1=O,12,23[16.7 µM]

# Four entries from above, as labelled records:
> C[C@@H]1CN([C@@H](C)CO)C(=O)c2cc(NS(=O)(=O)c3cccs3)ccc2O[C@@H](C)CCCCO[C@@H]1CN(C)S(=O)(=O)c1ccccc1
- Yeast UUG start = -16
- HIV Env fusion = -21[16.7 µM]
> COCc1cn(CC[C@@H]2CC[C@H](NC(=O)c3ccccc3)[C@@H](CO)O2)nn1
- Yeast UUG start = -2
- HIV Env fusion = 17[16.7 µM]
> C[C@@H]1CN([C@@H](C)CO)C(=O)c2cc(C#CCN(C)C)cnc2O[C@H]1CN(C)Cc1ccccn1
- Yeast UUG start = -25
- HIV Env fusion = -11[16.7 µM]
> COCC(=O)Nc1ccc2c(c1)C(=O)N(C)[C@H]1CC[C@H](CC(=O)NCCc3ccccc3)O[C@H]1CO2
- Yeast UUG start = -5
- HIV Env fusion = 8[16.7 µM]

# (more compounds)
SMILES,Yeast UUG start,HIV Env fusion
C/C=C/c1ccc2c(c1)O[C@H](CN(C)C(=O)c1ccncc1)[C@H](C)CN([C@@H](C)CO)S2(=O)=O,3,-1[16.7 µM]
C[C@H](CO)N1C[C@H](C)[C@@H](CN(C)C(=O)Nc2cccc3ccccc23)Oc2c(NC(=O)Nc3cccc4ccccc34)cccc2C1=O,0,-18[16.7 µM]
C[C@@H]1CN([C@H](C)CO)S(=O)(=O)c2ccc(Br)cc2O[C@@H]1CN(C)S(=O)(=O)c1ccccc1,15,38[16.7 µM]
COc1ccc(S(=O)(=O)Nc2ccc3c(c2)CC(=O)N([C@H](C)CO)C[C@H](C)[C@@H](CN(C)S(=O)(=O)c2ccc(C)cc2)O3)cc1,2,-1[16.7 µM]
C[C@H]1CN([C@@H](C)CO)C(=O)c2cc(-c3ccncc3)cnc2O[C@@H]1CN(C)C(=O)c1ccccc1F,-17,-30[16.7 µM]
C[C@@H]1CCCCO[C@@H](CN(C)C(=O)Nc2ccccc2)[C@@H](C)CN([C@H](C)CO)C(=O)c2cc(NC(=O)CCCN(C)C)ccc2O1,-4,6[16.7 µM]
CCS(=O)(=O)Nc1ccc2c(c1)C(=O)N(C)[C@H]1CC[C@@H](CC(=O)NC3CCCCC3)O[C@@H]1CO2,-7,-2[16.7 µM]
C[C@H](CO)N1C[C@H](C)[C@H](CN(C)Cc2ccc3c(c2)OCO3)OCCCC[C@H](C)Oc2ccc(NS(=O)(=O)c3ccccc3)cc2C1=O,6,-55[16.7 µM]
C[C@H](O)C#Cc1ccc2c(c1)O[C@@H](CN(C)Cc1cccnc1)[C@@H](C)CN([C@H](C)CO)S2(=O)=O,-1,-4[16.7 µM]
COCC(=O)Nc1ccc2c(c1)C(=O)N(C)C[C@@H](OC)[C@H](C)CN(C(C)=O)[C@@H](C)CO2,-11,-16[16.7 µM]

# More structures.
SMILES,Yeast UUG start,HIV Env fusion
C[C@@H]1CN([C@H](C)CO)S(=O)(=O)c2ccc(-c3ccc(C#N)cc3)cc2O[C@@H]1CN(C)C(=O)CN(C)C,2,4[16.7 µM]
C[C@H](CO)N1C[C@H](C)[C@H](CN(C)S(=O)(=O)c2ccc(C#N)cc2)Oc2ncc(-c3ccc(F)cc3)cc2C1=O,3,27[16.7 µM]
Cc1ccc(S(=O)(=O)Nc2ccc3c(c2)C(=O)N([C@@H](C)CO)C[C@@H](C)[C@@H](CN(C)S(C)(=O)=O)O3)cc1,-7,25[16.7 µM]
C[C@H]1CN([C@@H](C)CO)C(=O)c2cccc(NS(C)(=O)=O)c2O[C@@H]1CN(C)Cc1ccc(-c2ccccc2)cc1,25,12[16.7 µM]
CCC(=O)N[C@H]1CC[C@@H](CC(=O)NCC2CCCCC2)O[C@H]1CO,-9,6[16.7 µM]
C[C@@H]1CCCCO[C@@H](CN(C)C(=O)Nc2ccc(F)cc2)[C@@H](C)CN([C@H](C)CO)C(=O)c2cc(NC(=O)Cc3ccccc3)ccc2O1,-11,-33[16.7 µM]

# Screening results (PubChem)
